# NOMO-1 viab = STK33 inhibitor candidate reducing NOMO-1 cell viability; NOMO-1 AML viability, CellTiter-Glo luminescence, 72 h; inhibition, % (concentration not given with the values); hit rate 7.5% among 37,000;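 active = most replicates above 80%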;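 note: wells of about 30 µL received 25 nL stock; 0% = median of vehicle wells and 100% = reference inhibitor level; the first replicate is given; inactives centre near 10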
# Numbers without * were called inactive.
entry	Molecule	NOMO-1 viab
1	CC(C)(C)c1cc(NC(=O)CSc2nnnn2-c2ccccc2)cc(C(C)(C)C)c1	16
2	Cc1ccc(C)c(NC(=O)CN(c2ccc(Oc3ccccc3)cc2)S(C)(=O)=O)c1	13
3	Brc1ccccc1-c1nc2ccccc2c2nc3ccccc3n12	50
4	Cc1ncc([N+](=O)[O-])n1Cc1n[nH]c(=S)n1C	-9
5	CC1(C)CC(=O)C(C=NCc2ccc(F)cc2)=C(O)C1	2
6	COc1ccc(NC(=O)N(C)C[C@H]2Oc3ccc(NC(=O)Nc4cccc5ccccc45)cc3C(=O)N([C@H](C)CO)C[C@@H]2C)cc1	3
7	CCC(=O)c1ccc2c(c1)N(CC(C)N(C)C)c1ccccc1S2 (centres undefined)	84*
8	COc1cc(C2c3c(cc(OC)c(O)c3OC)CC(CO)C2COC2OCC(O)C(O)C2O)cc(OC)c1O (centres undefined)	0
9	Cc1ccc(S(=O)(=O)N(C)C[C@H]2Oc3c(NS(=O)(=O)c4ccccc4)cccc3C(=O)N([C@@H](C)CO)C[C@H]2C)cc1	25
10	C[C@H]1CN([C@@H](C)CO)C(=O)c2cccc(NS(=O)(=O)c3cn(C)cn3)c2O[C@H]1CN(C)S(=O)(=O)c1ccc(F)cc1	5
11	COc1cccc(N(CC(=O)Nc2cc(C(F)(F)F)ccc2Cl)S(C)(=O)=O)c1	2
12	CC1(C)CC[C@@]2(C(=O)O[C@@H]3O[C@H](CO)[C@@H](O)[C@H](O)[C@H]3O)C(C1)C1=CCC3[C@@]4(C)CC[C@@H](O[C@@H]5O[C@H](CO)[C@@H](O)[C@H](O)[C@H]5O[C@@H]5O[C@H](CO)[C@@H](O)[C@H](O)[C@H]5O)C(C)(C)C4CC[C@@]3(C)[C@]1(C)C[C@H]2O (some centres undefined)	7
13	Cc1cccc(NC(c2ccccc2C)c2ccc3ccc(C)nc3c2O)n1 (centres undefined)	121*
14	CCn1c(-c2ccccc2)n[nH]c1=S	-6
15	Cc1noc(C)c1NC(=O)N(C)C[C@@H]1Oc2ccc(NC(=O)Nc3ccccc3)cc2CC(=O)N([C@H](C)CO)C[C@@H]1C	3
16	Cc1c(Cl)cccc1NC(=O)CN(c1cccc(F)c1)S(C)(=O)=O	17
17	COc1ccc(-c2oc3c(OC)c(OC)c(OC)c(O)c3c(=O)c2OC)cc1OC	107*
18	C[C@@H]1CN([C@H](C)CO)C(=O)c2cc(NC(=O)Nc3ccc(F)cc3)ccc2O[C@@H]1CN(C)S(=O)(=O)c1cccs1	29
19	COC1OC(OC)C(O)(CC[C@@]2(O)[C@H](C)C[C@@H](O)C3[C@@](C)(CO)CCC[C@]32C)C1O (some centres undefined)	82*
20	CC1(C)CC(=O)C(C=NC(CO)(CO)CO)=C(O)C1	21
21	COc1ccc(NC(=O)Nc2ccc3c(c2)C(=O)N([C@@H](C)CO)C[C@H](C)[C@H](CN(C)S(=O)(=O)c2ccccc2)O3)cc1	61
22	Cc1nc(SCC(=O)c2cc3ccccc3oc2=O)c(C(N)=O)c(C)c1C	26
23	O/N=C/c1c(F)cccc1F	-18
24	Cc1cc(Cl)ccc1NC(=O)Cn1cnc2sc(C)c(-c3ccc(F)cc3)c2c1=O	34
25	C[C@H]1CN([C@@H](C)CO)C(=O)c2cc(NC(=O)Cc3ccccc3)ccc2O[C@H]1CN(C)CC1CC1	13
26	Cn1c(SCC(=O)Nc2ccccc2)nnc1-c1ccccc1F	-1
27	C[C@@H]1CN([C@H](C)CO)C(=O)c2cccc(NC(=O)c3ccc(-c4nccs4)cc3)c2O[C@H]1CN(C)C(=O)Nc1ccc2c(c1)OCO2	-23
28	Cc1cccc(OCC(=O)Nc2ccc(Cl)c(-c3nc4ccccc4s3)c2)c1	30
29	CCc1cc2c(NCC3CCCO3)ncnc2s1 (centres undefined)	5
30	C[C@H](CO)N1C[C@H](C)[C@H](CN(C)S(=O)(=O)c2cn(C)cn2)Oc2ccc(NS(=O)(=O)c3ccccc3)cc2CC1=O	1
31	CCOc1cc(S(=O)(=O)NCc2ccccn2)ccc1Cl	19
32	C[C@H](CO)N1C[C@H](C)[C@H](CN(C)Cc2ccc(Oc3ccccc3)cc2)Oc2c(NS(=O)(=O)c3ccc(F)cc3)cccc2C1=O	84*
33	COc1ccc(C(=O)N(Cc2nc(-c3ccccc3)no2)C(C)C)cc1[N+](=O)[O-]	32
34	O=C(CSc1nnc(-c2ccccc2)o1)Nc1cccc(Br)c1	7
35	C[C@H]1CN([C@@H](C)CO)C(=O)c2cccc(NC(=O)c3nc4ccccc4s3)c2O[C@@H]1CN(C)Cc1ccccc1	66
36	O=C1c2c(O)cc(O)cc2O[C@H](c2ccccc2)[C@H]1O	-8
37	O=C(CSC1CC(=O)N(c2ccccc2)C1=O)Nc1cccc(Br)c1 (centres undefined)	-1
38	C[C@@H]1CN([C@H](C)CO)C(=O)c2cc(NS(=O)(=O)c3cn(C)cn3)ccc2O[C@H]1CN(C)C(=O)NC1CCCCC1	10
39	CCN(CC(=O)Nc1ccc(Br)cc1F)S(=O)(=O)c1ccc(Cl)cc1	-19
40	CC(C)NC(=O)N(C)C[C@@H]1Oc2ccc(NS(=O)(=O)c3cccs3)cc2C(=O)N([C@H](C)CO)C[C@@H]1C	9
41	C[C@@H]1CN([C@@H](C)CO)C(=O)c2cccc(N(C)C)c2O[C@@H]1CN(C)C(=O)Nc1ccccc1	-1
42	C[C@@H]1CCCCO[C@@H](CN(C)CC2CCCCC2)[C@@H](C)CN([C@H](C)CO)C(=O)c2cc(NS(=O)(=O)c3ccc(F)cc3)ccc2O1	56
43	CNC[C@H]1Oc2ccc(NC(=O)Cc3ccccc3)cc2CC(=O)N([C@H](C)CO)C[C@H]1C	24
44	C[C@@H]1CCCCO[C@@H](CN(C)Cc2ccncc2)[C@@H](C)CN([C@H](C)CO)C(=O)c2cc(NS(=O)(=O)c3cn(C)cn3)ccc2O1	-8
45	Cn1c(Cc2ccccc2)nnc1Sc1ccc([N+](=O)[O-])cc1C(=O)N1CCOCC1	-3

# Fetched one by one from the entries so far (3):
entry	Molecule	NOMO-1 viab
5	CC1(C)CC(=O)C(C=NCc2ccc(F)cc2)=C(O)C1	2
18	C[C@@H]1CN([C@H](C)CO)C(=O)c2cc(NC(=O)Nc3ccc(F)cc3)ccc2O[C@@H]1CN(C)S(=O)(=O)c1cccs1	29
40	CC(C)NC(=O)N(C)C[C@@H]1Oc2ccc(NS(=O)(=O)c3cccs3)cc2C(=O)N([C@H](C)CO)C[C@@H]1C	9

# Some of the entries so far, with each value named.
33. COc1ccc(C(=O)N(Cc2nc(-c3ccccc3)no2)C(C)C)cc1[N+](=O)[O-]
- NOMO-1 viab: 32

34. O=C(CSc1nnc(-c2ccccc2)o1)Nc1cccc(Br)c1
- NOMO-1 viab: 7

35. C[C@H]1CN([C@@H](C)CO)C(=O)c2cccc(NC(=O)c3nc4ccccc4s3)c2O[C@@H]1CN(C)Cc1ccccc1
- NOMO-1 viab: 66

36. O=C1c2c(O)cc(O)cc2O[C@H](c2ccccc2)[C@H]1O
- NOMO-1 viab: -8

# The list goes on.
entry	Molecule	NOMO-1 viab
46	COC(=O)C1=C(C)NC(=O)CC1c1ccccc1C (centres undefined)	-5
47	C[C@H]1CN([C@@H](C)CO)C(=O)Cc2cc(N(C)C)ccc2O[C@@H]1CN(C)C(=O)Nc1ccccc1	-1
48	C[C@@H]1CN([C@H](C)CO)C(=O)c2cc(NC(=O)CCN3CCOCC3)ccc2O[C@H]1CN(C)Cc1ccncc1	-3
49	C[C@H](CO)N1C[C@H](C)[C@H](CN(C)Cc2ccc(-c3ccccc3)cc2)Oc2c(NC(=O)Nc3ccc(F)cc3)cccc2C1=O	70
50	O=C(CC(Sc1ccc(Br)cc1)C(=O)O)c1ccc(Cl)cc1 (centres undefined)	115*
51	COc1ccc(S(=O)(=O)N(C)CC(=O)Nc2ccccc2OC)cc1C	-3
52	O=C(CSc1nc2ncccc2[nH]1)Nc1ccccc1Cl	62
53	c1ccc(-n2nnnc2CSc2nnnn2-c2ccccc2)cc1	3
54	Cc1ccc(S(=O)(=O)CCC(=O)Nc2ccc(Cl)cc2)cc1	5
55	CC1(C)OC(=O)C(=Cc2ccoc2)C(=O)O1	38
56	Cc1noc(C)c1NC(=O)N(C)C[C@@H]1Oc2c(NS(=O)(=O)c3ccccc3)cccc2C(=O)N([C@H](C)CO)C[C@H]1C	-2
57	COc1ccccc1NC(=O)CSC1=NC(c2ccccc2)CC(=O)N1 (centres undefined)	51
58	C[C@H]1CN([C@@H](C)CO)C(=O)Cc2cc(NC(=O)Cc3cn(C)c4ccccc34)ccc2O[C@@H]1CN(C)S(=O)(=O)c1ccccc1	26
59	Cc1ccc(S(=O)(=O)Nc2cccc3c2O[C@H](CN(C)Cc2ccncc2)[C@@H](C)CN([C@H](C)CO)C3=O)cc1	25
60	Cc1cc(OCCCC(=O)Nc2sc3c(c2C#N)CCCC3)cc(C)c1Cl	38
61	Cc1ccc(NC(=O)COc2ccc3c(=O)c(-c4ccccc4Cl)coc3c2)cc1	26
62	CS(=O)(=O)N(CC(=O)Nc1cc(Cl)ccc1Cl)c1cc(Cl)c(Cl)cc1Cl	16
63	Cc1noc(C)c1S(=O)(=O)Nc1ccc2c(c1)C(=O)N([C@H](C)CO)C[C@H](C)[C@H](CN(C)S(C)(=O)=O)O2	0
64	C[C@@H]1CN([C@@H](C)CO)C(=O)Cc2cc(NC(=O)C3CC3)ccc2O[C@@H]1CN(C)Cc1ccc(C(=O)O)cc1	14
65	O=C(CSc1ncccn1)Nc1cc(Cl)cc(Cl)c1	14
66	Cc1ccc(C(=O)CSc2nnc(-c3cc(C(C)(C)C)nn3Cc3cccc(C)c3)o2)cc1	38
67	COc1ccc(NC(=O)Nc2cccc3c2O[C@@H](CN(C)Cc2ccc(-c4ccccc4)cc2)[C@H](C)CN([C@H](C)CO)C3=O)cc1	17
68	C[C@H]1CN([C@@H](C)CO)C(=O)c2cccc(NC(=O)C3CCOCC3)c2O[C@@H]1CN(C)C(=O)Nc1ccc(C(F)(F)F)cc1	5
69	COc1ccc(NC(=O)Nc2ccc3c(c2)CC(=O)N([C@H](C)CO)C[C@@H](C)[C@H](CN(C)Cc2ccc(Oc4ccccc4)cc2)O3)cc1	4
70	O=C(c1nsnc1-c1ccccc1O)N1CCCC1	18
71	CNC[C@H]1Oc2ccc(NC(=O)c3ccncc3)cc2C(=O)N([C@H](C)CO)C[C@H]1C	9
72	Cc1cc2nn(-c3ccc(C(C)C)cc3)nc2cc1NC(=O)COc1ccccc1[N+](=O)[O-]	2
73	CCOC(=O)c1c(CSc2nc(C)ccc2C#N)oc2ccc(OC(C)=O)cc12	117*
74	Cc1noc(C)c1NC(=O)Nc1cccc2c1O[C@@H](CN(C)Cc1ccncc1)[C@@H](C)CN([C@H](C)CO)C2=O	6
75	CCn1nc(C)c(NC(=S)NCc2ccco2)c1C	24
76	O=C(c1cccc2ccccc12)N1CCc2ccccc21	43
77	Cc1ccc(S(=O)(=O)N(C)C[C@H]2Oc3ccc(NC(=O)Nc4cccc5ccccc45)cc3C(=O)N([C@@H](C)CO)C[C@@H]2C)cc1	15
78	COc1ccc(S(=O)(=O)N(C)CC(=O)NC2CCCC2)cc1Cl	8
79	CC1OC(OC2C(OC3C(O[C@H]4CC[C@@]5(C)C(CC[C@]6(C)C5CC=C5C7CC(C)(C)CC(O)[C@]7(C)CC[C@]56C)C4(C)C)OC(C(=O)O)C(O)C3O)OCC(O)C2O)C(O)C(O)C1O (some centres undefined)	-4
80	COC(=O)c1cc(OC)c(OC)cc1NC(=O)COc1ccc(C(C)(C)C)cc1Br	10
81	Cc1ccc(-c2csc3nnc(SCC(=O)Nc4nsc(-c5ccccc5)n4)n23)cc1	7
82	COc1ccc(S(=O)(=O)Nc2ccc3c(c2)C(=O)N([C@@H](C)CO)C[C@H](C)[C@@H](CN(C)C(=O)Nc2c(C)noc2C)O3)cc1	13
83	C[C@@H]1CN([C@H](C)CO)C(=O)c2cc(NC(=O)CCC(F)(F)F)ccc2O[C@H]1CN(C)Cc1ccc2c(c1)OCO2	4
84	C[C@@H]1CN([C@H](C)CO)C(=O)c2cc(NC(=O)Nc3ccccc3)ccc2O[C@@H]1CN(C)Cc1ccc(Cl)c(Cl)c1	89*
85	Cc1ccc(S(=O)(=O)Nc2cccc3c2O[C@H](CN(C)S(=O)(=O)c2ccc(F)cc2)[C@@H](C)CN([C@H](C)CO)C3=O)cc1	10
86	COc1ccc(NC(=O)Nc2ccc3c(c2)C(=O)N([C@@H](C)CO)C[C@H](C)[C@@H](CN(C)Cc2ccccc2)O3)cc1	-2
87	C[C@H]1CN([C@@H](C)CO)C(=O)c2cccc(N(C)C)c2O[C@H]1CN(C)C	11
88	C[C@H](CO)N1C[C@H](C)[C@H](CN(C)Cc2ccncc2)Oc2ccc(NC(=O)Nc3ccccc3)cc2C1=O	97*
89	CC(C)NC(=O)Nc1cccc2c1O[C@H](CN(C)C(=O)NC1CCCCC1)[C@H](C)CN([C@@H](C)CO)C2=O	24
90	O=C(O)C1C2C=CC(C2)C1C(=O)Nc1cccc([N+](=O)[O-])c1 (centres undefined)	12
91	C[C@@H]1CN([C@@H](C)CO)C(=O)c2cccc(NC(=O)c3ccc(-c4nccs4)cc3)c2O[C@H]1CN(C)Cc1ccccc1	88*
92	Cc1ccc(S(=O)(=O)N(C)C[C@H]2Oc3c(NC(=O)C4CCOCC4)cccc3C(=O)N([C@@H](C)CO)C[C@H]2C)cc1	3
93	O=C(NCc1cccnc1)C1CC(=O)N(c2ccc(Cl)cc2)C1 (centres undefined)	-3
94	C[C@H]1CN([C@@H](C)CO)C(=O)Cc2cc(NC(=O)Nc3ccccc3)ccc2O[C@H]1CN(C)Cc1ccc(Oc2ccccc2)cc1	54
95	CCOC(=O)c1ccc(S(=O)(=O)N(C)C)cc1	-18
96	C=C1C(O)CC2C(C(=O)OC)=CO[C@@H](O[C@@H]3O[C@H](CO)[C@@H](O)[C@H](O)[C@H]3O)C12 (some centres undefined)	-16

# Screening results deposited in PubChem BioAssay by Broad Institute.

# This is a subset. The share of hits here may be higher or lower than overall.
